Mtb hypoxia inh: Mtb hypoxia fluorescent reporter inhibition | M. tuberculosis hypoxia-regulated fluorescent reporter, fluorescence | fluorescence inhibition, % (no concentration beside the values) | actives 0.1% (n = 300,000) | AID 1159583;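 active = 35 to 45% if threefold the growth effect, above 45% if 1.5-fold the growth effect; inactive = the rest, general growth blockers included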;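 note: wells of about 50 µL received 100 nL stock; 0% = vehicle wells and 100% = reference inhibitor wells; whole bacteria with a GFP reporter of the hypoxia response; strong numbers were not always called active; many hits fall short of the cut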
BJeLR lethal: BJeLR cell viability loss; BJeLR (HRASV12) viability, CellTiter-Glo ATP luminescence, 48 h; reference of the scale not given here; inhibition, % (test concentration not listed); actives 0.17% (n = 300,000); AID 1554;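 active = replicate mean above 50%; inconclusive = above 50% but judged a plate artefact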;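 note: 50 nL library stock added to about 25 µL; numbers are from one replicate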
Autofluor counter: counter-screen for toxin protease inhibitors: compound fluorescence | actives 3.1% (n = 360,000) | AID 624483 | fluorescence intensity (no concentration beside the values) | compound autofluorescence counterscreen, microsphere flow cytometry; hits give high values;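 active = at least 3 SD above the mean of all compounds, about 16000 in these data; inconclusive = too few beads counted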;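 note: 100 nL of 1 mM stock went into each well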
PrP UTR inh: inhibition of PrP 5' UTR reporter expression | cell-based PrP 5' UTR mRNA reporter, plate reader | inhibition, % (test concentration not listed) | AID 488862 | actives 0.35% (n = 340,000);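 active = every replicate at 50% or more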;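 note: 0 = median of the neutral control wells; tested in H4 reporter cells; numbers are from one replicate; inactives centre near -14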
RN4220 kill: kills Staphylococcus aureus RN4220. S. aureus RN4220 growth, OD600, 16 h. inhibition, % (test concentration not listed). actives 0.33% (n = 330,000). AID 1259311;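 active = z-score of -3 or lower and OD600 up to 0.18 on both plates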;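 note: plate controls were untreated cells for no effect and reference antibiotic for full effect; stock transfer was 100 nL into about 80 µL; one replicate is shown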
ugtP null kill: kills S. aureus RN4220 lacking UgtP; actives 0.54% (n = 330,000); S. aureus RN4220 ugtP deletion, OD600 growth, 16 h; some inactives read as strong as hits; growth inhibition, % (no concentration beside the values);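 active = z-score under -3 and OD600 up to 0.15 on both plates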;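 note: plate controls were untreated wells for no effect and antibiotic for full effect; wells of about 80 µL received 100 nL stock; the first replicate is given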
Mtb hypoxia inh growth: second read-out of Mtb hypoxia inh, no call of its own (marks repeat the call); growth inhibition, %; measured here: M. tuberculosis growth (absorbance);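 0% = vehicle and 100% = reference antibiotic; read after six days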
* hit, by the source's call; ? = inconclusive; · = not tested or not shown.

smiles,Mtb hypoxia inh,Mtb hypoxia inh growth,BJeLR lethal,Autofluor counter,PrP UTR inh,RN4220 kill,ugtP null kill
COC(=O)c1ccc(CN2CCN(CCCc3ccccc3)C(CCO)C2)cc1 (centres undefined),13,15,3,4531,-11,1.4,2
Cc1ccc(C=CC2=NN(C)C(=O)CC2)cc1,8,16,·,·,·,6.6,-3
O=C(NC1CCCC1)c1cnn2c(C(F)(F)F)cc(-c3ccc4c(c3)OCO4)nc12,2,14,0,9056,-16,11,13
CCN(CC)C(=O)[C@H]1C[C@H](CC(=O)NCc2cccc(C(F)(F)F)c2)C(=O)N2CCc3c([nH]c4cc(-c5ccco5)ccc34)[C@]12C,-6,6,·,3776,-1,0.0,9
Cc1ccc2[nH]c(=O)c(C(c3nnnn3C(C)(C)C)N(Cc3ccco3)CC3CCCO3)cc2c1 (centres undefined),0,-3,3,5660,-7,12,-7
CN(C)c1nc2n(c(=O)n1)C(C#N)CS2 (centres undefined),-2,1,13,16338*,-18,6.5,11
COc1cc(C(=O)N2CCN=C2c2ccccc2)cc(OC)c1OC,·,·,·,·,-8,-1.8,-4
COC(=O)c1ccc(N2CCN(C)CC2)c(NC(=O)c2sc3ccccc3c2Cl)c1,·,·,5,5014,3,·,·
CC(Sc1nnc(-c2ccc(C(C)(C)C)cc2)n1C)C(N)=O (centres undefined),1,14,·,3274,-22,-2.4,-6
O=C(Nc1cccc(Cl)c1)N1CCOCC1,-1,0,-7,3350,10,-4.5,-5
CCN(CCC#N)c1ccc(C=NNc2nc(C)cc(=O)[nH]2)c(C)c1,0,5,·,·,·,1.1,2
CC(C)(C)NS(=O)(=O)c1ccc(CCC(=O)NCc2ccccn2)cc1,12,10,1,3834,-23,0.4,3
Cc1ccc(Sc2cc(C(=O)NCCN(C)C)c3ccccc3n2)cc1,2,9,2,3870,-12,0.7,0
CCCOc1ccc(C(CC(=O)O)NC(=O)C(c2ccccc2)c2ccccc2)cc1 (centres undefined),-3,2,·,3971,-14,-4.1,4
Cc1cc(C)nc(SCC(=O)NN=Cc2cccnc2)n1,-1,0,·,·,·,-0.4,4
CCCCCN(C(=O)NC(=O)Nc1ccc(C)cc1C)S(C)(=O)=O,6,1,-1,4579,7,2.4,4
O=C(Oc1ccc(C=NO)cc1)c1ccccc1Cl,5,3,·,·,·,8.4,5
CS(=O)(=O)c1ccc(Cl)c(NC(=O)c2cccc(Br)c2)c1,5,5,3,1957,-7,8.5,3
Nc1nnnn1CC(=O)N/N=C/c1ccc(-c2cccc(Cl)c2)o1,·,·,-4,2185,-54,·,·
Cn1nnnc1Sc1ncnc2scc(-c3ccsc3)c12,4,4,·,3512,-29,8.1,1
Cc1ccc2c(c1)C1CN(C)CCC1N2C(=O)COc1ccc(N(C)C(=O)c2ccccc2)cc1 (centres undefined),2,-2,-4,2588,-21,3.2,5
CCn1c(SCC(=O)N2CCCC2)nnc1-c1ccco1,8,14,-5,5507,-12,-2.0,-1
COC(=O)Cc1ccc(NC(=O)c2ccc(C(C)(C)C)cc2)cc1,-6,6,13,4039,79*,-0.4,-29
O=C(O)c1ccccc1NCCO,4,-3,8,4136,-11,3.1,2
Cc1cc(C=NNC(N)=S)c(C)n1-c1ccc(Cl)cc1,·,·,·,·,·,-5.1,-2
Cc1ccc(S(=O)(=O)N2CCCCC2)cc1NC(=O)CCNC(=O)c1ccc([N+](=O)[O-])cc1,-1,7,·,5072,-87,4.5,1
O=S(=O)(c1ccc(Nc2ccc(-c3ccc4c(c3)OCCO4)nn2)cc1)N1CCCC1,0,2,3,7199,-44,7.0,28
Cc1ccccc1-c1nc(CS(=O)(=O)CC(=O)NCCCN2CCCC2)c(C)o1,5,14,-2,5990,-7,-11,-2
Cn1c(=O)c2c(nc(SCC(=O)O)n2Cc2cccc(C(F)(F)F)c2)n(C)c1=O,·,·,4,4227,-26,-3.1,8
O=S(=O)(Nc1cccc2cn[nH]c12)c1ccc(F)cc1,·,·,1,5107,-1,2.6,-7
Cn1cnnc1SCC(=O)N1CCC(Cc2ccccc2)CC1,8,7,1,2905,-4,-10,-3
COc1cccc(NC(=O)Cn2c(=O)n(-c3ccccc3)c(=O)c3sccc32)c1,-1,2,-10,4545,-11,0.2,10
CCCN(CCC)Cc1c(C(=O)N/N=C/c2ccsc2)nnn1-c1nonc1N,·,·,7,2885,-5,·,·
O=c1c2ccccc2nc(-c2ccccc2)n1-c1ccncc1,9,2,0,?,-41,4.3,0
CC(C)NC(=O)C(C)n1cccc1C(=O)c1ccccc1 (centres undefined),15,14,-3,2858,-34,3.7,6
COc1ccccc1CCNC(=O)C(=O)NCCC1CCCCN1S(=O)(=O)c1cccs1 (centres undefined),10,5,-4,8413,-10,3.8,7
C[C@@H](CSc1ccccc1)CN1CC[C@H](O)CCC1=O,10,5,7,3054,-32,-12,3
COCCCNC(=O)Cn1c(=O)n(Cc2ccc(F)cc2)c(=O)c2sccc21,5,0,3,3306,-7,7.2,11
CCOc1ccc(S(=O)(=O)N2CCC(C(=O)OC(C)C(=O)NC3CCCCC3C)CC2)cc1 (centres undefined),-2,-4,·,8819,-19,3.1,-1
O=C(O)c1cc([N+](=O)[O-])ccc1NCc1ccccc1Cl,-5,8,-1,3148,18,-11,16
Cc1cccc(NC(=O)NNC(=O)COc2ccc3ccccc3c2)c1,9,4,6,5572,-14,-4.0,0
COc1ccc(C2C(C(=O)NC(C)C)c3ccccc3C(=O)N2C)cc1OC (centres undefined),0,1,-5,8068,-26,1.9,8
CCCCNC(=O)C(=O)NN=Cc1cccc(Br)c1,5,7,·,·,·,0.6,1
Cc1cccc(OCC(=O)N/N=C\c2cc3c(cc2[N+](=O)[O-])OCO3)c1C,·,·,3,9730,-28,·,·
O=C1CCc2cc(S(=O)(=O)N3CCN(c4cccc(Cl)c4)CC3)ccc2N1,10,1,-1,17938*,2,5.6,3
O=C(Nc1ccc(S(=O)(=O)Nc2ncccn2)cc1)c1ccccc1Br,·,·,-3,4293,-29,·,·
Cc1c(NS(=O)(=O)c2cc(C(=O)NC(C)c3ccccc3)ccc2Cl)c(=O)n(-c2ccccc2)n1C (centres undefined),2,-9,·,5390,-15,-1.2,5
Cc1cccc(S(=O)(=O)N2CCN(Cc3ccc4c(c3)OCO4)CC2)c1,0,-1,-3,3588,-22,3.8,15
CN(c1ccccc1)S(=O)(=O)c1cccc(NS(=O)(=O)c2ccc(/C=C/C(=O)O)cc2)c1,5,7,-2,4048,8,18,8
CCOc1ccc(C(C(=O)NCCC(C)C)N(CCO)C(=O)c2snc(C(N)=O)c2N)cc1 (centres undefined),·,·,1,3795,-33,·,·

Compounds above that contain two or more sulfur atoms:
smiles,Mtb hypoxia inh,Mtb hypoxia inh growth,BJeLR lethal,Autofluor counter,PrP UTR inh,RN4220 kill,ugtP null kill
Cn1nnnc1Sc1ncnc2scc(-c3ccsc3)c12,4,4,·,3512,-29,8.1,1
COc1ccccc1CCNC(=O)C(=O)NCCC1CCCCN1S(=O)(=O)c1cccs1 (centres undefined),10,5,-4,8413,-10,3.8,7
CN(c1ccccc1)S(=O)(=O)c1cccc(NS(=O)(=O)c2ccc(/C=C/C(=O)O)cc2)c1,5,7,-2,4048,8,18,8

(next part)
smiles,Mtb hypoxia inh,Mtb hypoxia inh growth,BJeLR lethal,Autofluor counter,PrP UTR inh,RN4220 kill,ugtP null kill
O=[N+]([O-])c1cccc(-n2cc3ccc([N+](=O)[O-])cc3n2)c1,-2,-2,·,5306,-19,4.6,4
COc1ccc(CNC(=O)Cn2cncn2)cc1OC,-6,-5,6,3153,-1,0.5,-9
COc1ccc(-n2cnc3scc(-c4ccc(OC)c(OC)c4)c3c2=O)cc1,12,-4,5,2065,-14,4.0,8
Cc1ccc(-c2cc(C(=O)Nc3ccc(S(=O)(=O)Nc4ncccn4)cc3)[nH]n2)c(O)c1C,-6,4,-4,3628,4,2.2,3
Cc1ccc(/C=N/NC(=O)c2cccc([N+](=O)[O-])c2)o1,·,·,-1,8914,-18,·,·
O=C(OCc1cnc(Cl)s1)c1c(F)cccc1F,9,4,4,4584,0,8.2,-3
O=P(C(=NCCO)NO)(N1CCOCC1)N1CCOCC1,2,5,-2,4116,-19,3.8,5
Cc1ccccc1NC(=O)COC(=O)c1cc[n+]([O-])cc1,9,3,12,5688,-12,0.7,1
COc1ccc(C2NC(=O)CCC2[N+](=O)[O-])cc1OC (centres undefined),5,11,3,3967,-8,1.6,8
CN1CCN(CCCNC(=O)c2cc3c(=O)oc4ccccc4c3s2)CC1,·,·,·,5328,-15,0.5,-1
COc1ccc(NC(=O)NCc2ccncc2)cc1,·,·,0,3895,-3,1.1,2
CCCC1(c2ccccc2)NC(=O)N(C/C=C/Cl)C1=O (centres undefined),·,·,4,5159,-9,·,·
O=C(c1ccccc1)C(O)C(c1ccccc1)N1CCOCC1 (centres undefined),-2,6,-6,3658,-13,2.5,0
CCOC(=O)c1[nH]c(C)c(C(=O)N2CCN(c3ccc(OC)cc3)CC2)c1C,-4,2,-10,2178,-24,-3.5,15
CSCC[C@H](NC(=O)[C@@H]1Cc2ccccc2CN1)C(=O)NC1CCCCC1,-6,8,2,5478,-6,-3.7,-8
CCOC(=O)N1CCN(S(=O)(=O)c2cc(Br)cc3c2N(C(=O)CC)CC3)CC1,8,7,-9,8765,-29,3.5,-6
COc1ccc(CCNC(=O)c2cc(C(C)C)on2)cc1OC,1,7,7,6917,-17,-15,-1
CC(=O)c1c(C)[nH]c(C(=O)COC(=O)CN(C)S(=O)(=O)c2ccc(Cl)cc2)c1C,7,1,-1,2501,-4,7.7,11
O=C(CCNS(=O)(=O)c1cccc2nsnc12)N1CCc2ccccc21,·,·,-1,2283,-45,-2.0,3
COc1ccc(Sc2ccccc2CN(C)C)cc1OC,·,·,-9,4135,-7,0.3,4
CC1CC(=O)N(C)c2ccc([N+](=O)[O-])cc2N1 (centres undefined),-4,11,0,6910,-13,0.5,3
COc1cccc(C2/C(=C(\O)c3ccc4c(c3)OCCO4)C(=O)C(=O)N2CCN(C)C)c1 (centres undefined),·,·,·,3704,-12,2.3,3
Clc1ccc(-c2nnc(-c3cccnc3)o2)cc1,12,8,-6,4041,-56,1.5,7
Cc1cc(=O)oc(C)c1C(=O)NC12CC3CC(CC(C3)C1)C2,9,4,2,2407,-7,5.0,10
O=S(=O)(NCC(c1ccc2c(c1)OCO2)N1CCOCC1)c1ccc(Cl)cc1 (centres undefined),·,·,-10,5218,-19,·,·
CC(=O)c1c(CSc2ccccc2)oc2ccc(O)c(CN(C)C)c12,3,3,1,3780,-4,-1.1,2

Compound activity from PubChem.
